# Screening data: PubChem, National Center for Advancing Translational Sciences (NCATS)
# ClpP mod: qHTS Assay for Activators of ClpP. ATP-dependent Clp protease proteolytic subunit (Bacillus subtilis (strain 168)), P80244. 1.9% of 340,000 active. Potency, µM (titrated, usually from 57.5 µM), for inactives: at the top dose activity change, negative = active. purified B. subtilis ClpP, FRET peptide cleavage, 20 min; active = well fitted falling curve with a large enough effect; inconclusive = small, poorly fitted or top-dose-only effect; inactive = no such curve, though single readings can be large or run the other way; further: potency means the concentration at half of the fitted maximal effect; the source files actives as falling curves though it sought activators and does not explain the sign; nearly all actives have a fitted effect of over 65% in size; many hits overshoot -100%
# Target sequence (P80244 whole entry, looked up): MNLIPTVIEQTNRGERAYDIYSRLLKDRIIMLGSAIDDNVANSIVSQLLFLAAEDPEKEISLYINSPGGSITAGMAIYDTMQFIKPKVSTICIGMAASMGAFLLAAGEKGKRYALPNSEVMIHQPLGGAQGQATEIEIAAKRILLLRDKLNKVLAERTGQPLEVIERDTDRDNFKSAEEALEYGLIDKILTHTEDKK
#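 Purified B. subtilis ClpP, 10 microg/mL final in Tris/HCl pH8 with KCl, BSA, glycerol and Tween-20, cleaved an Abz/nitrotyrosine-quenched decapeptide. Fluorescence (ex 320, em 430) was read at 0 and 20 min at room temperature. Delta was normalized to 5.8 microM ADEP and DMSO/no-enzyme controls.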
# Menin-MLL FL inh: menin-MLL binding inhibition, fluorescein peptide. Fluorescence polarization, fluorescein-MLL peptide displacement from menin. FP activity change, % at 61.4 µM. 290,000 tested, under 10 active. AID 1766; inconclusive = falling polarisation curve, or a change in total fluorescence; inactive = total fluorescence flat and polarisation flat or rising; no compound was filed as active; the % refers to the polarisation; negative = inhibition;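 further: % of control where 0% means no effect; inhibitors lower the polarisation; unlabelled MLL peptide was the positive control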
# TRPV1 PAM: potentiators of human vanilloid receptor 1 (TRPV1); TRPV1-expressing cells, Fluo-8 calcium influx, capsaicin EC20 potentiation; host cell line not named in the record; control for the full effect not named in the record; potentiation, % at 8.33 µM; 0.02% of 320,000 active; AID 540277; active means potentiation above 80%; inconclusive means 30% to 80%; inactive means below 30%; further: 0% is about no effect
# Target sequence (Q8NER1 whole entry, looked up): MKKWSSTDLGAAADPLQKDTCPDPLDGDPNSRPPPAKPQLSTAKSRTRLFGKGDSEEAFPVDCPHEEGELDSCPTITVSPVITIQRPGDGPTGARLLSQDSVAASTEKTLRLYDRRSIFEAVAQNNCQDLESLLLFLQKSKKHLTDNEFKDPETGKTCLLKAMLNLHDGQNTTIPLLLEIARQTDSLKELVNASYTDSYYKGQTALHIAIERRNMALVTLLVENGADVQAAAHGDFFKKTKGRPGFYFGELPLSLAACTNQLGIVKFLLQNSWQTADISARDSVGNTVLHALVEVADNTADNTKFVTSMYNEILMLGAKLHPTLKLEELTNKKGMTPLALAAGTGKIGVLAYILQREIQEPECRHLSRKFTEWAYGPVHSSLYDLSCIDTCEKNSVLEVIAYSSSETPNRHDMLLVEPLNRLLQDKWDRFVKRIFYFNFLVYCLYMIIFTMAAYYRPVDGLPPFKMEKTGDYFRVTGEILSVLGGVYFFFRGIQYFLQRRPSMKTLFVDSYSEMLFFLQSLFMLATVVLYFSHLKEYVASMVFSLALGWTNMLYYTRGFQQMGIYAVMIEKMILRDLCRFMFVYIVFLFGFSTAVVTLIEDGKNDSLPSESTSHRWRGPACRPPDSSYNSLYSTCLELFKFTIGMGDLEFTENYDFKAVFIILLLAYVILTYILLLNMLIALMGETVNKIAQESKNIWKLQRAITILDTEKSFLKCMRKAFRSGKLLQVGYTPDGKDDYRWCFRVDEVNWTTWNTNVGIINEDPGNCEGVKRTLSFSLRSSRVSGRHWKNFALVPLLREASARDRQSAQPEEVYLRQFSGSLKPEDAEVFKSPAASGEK
#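 Cells expressing TRPV1 were dye-loaded with Fluo-8 and read kinetically: 10 s baseline, 3 min after compound (agonist portion), then 2 min after EC20 capsaicin (allosteric enhancer portion). Calcium-bound dye fluorescence at 480/520 nm.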
# TRPML1 inh: blocks the human TRPML1 channel. Q9GZU1. TRPML1-inducible cells, Ca2+ dye fluorescence, FDSS; stronger effect = lower value; inhibition of EC80 agonist-evoked calcium signal. activity change, negative = inhibition, % (test concentration not listed). 0.02% of 390,000 active. AID 624415; in the data active means activity change below about -50%; inconclusive means about -30% to -50%; inactive means above about -30%;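 further: stimulus is agonist 54-4 at its EC80 concentration; on the % scale 0 is the no-effect control and ±100 the full control effect; compound concentration not given in the record; the text of the record puts the active cut at -80%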
#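 Calcium fluorescence in TRPML1-DL cells induced overnight with Tet: a 110 s read after compound pin addition, then a 110 s antagonist read after challenge with 54-4 at 4 uM final (EC80).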
# PINK1 modulator: PINK1 expression modulation; AID 624263; Potency, µM (highest dose often 76.6 µM), for inactives: top-dose activation (PINK1 increase), actives largely listed as activators; 0.2% of 410,000 active; PINK1 immunofluorescence, high-content cytometry, 24 h; active = well fitted activation curve with a large enough effect; inconclusive = small, poorly fitted or top-dose-only effect; inactive = flat fitted curve, though single readings scatter; cell line not stated here;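 further: potency means the concentration at half of the fitted maximal effect; % of control where 0% means no effect; nearly all actives have a fitted effect of over 65% in size; a mitochondrial uncoupler was the plate control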
#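 Decision-based qHTS: stable cells, 24 h exposure to five compound concentrations, CCCP as control. Fixed cells stained for PINK1 plus nuclear, mitochondrial and cell markers, cytometer read.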
# Sfp PPTase inh: Sfp phosphopantetheinyl transferase inhibition. Biochemical Sfp PPTase activity, qHTS. Q9F4F7. Potency, µM, inactives show max response, negative = inhibition, hits mostly inhibitors. 3.5% of 310,000 active. AID 1490; active means well fitted inhibition curve with a large enough effect; inconclusive means small, poorly fitted or top-dose-only effect, or another doubt; inactive means no such curve, though single readings can be large or run the other way;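 further: the enzyme is Sfp with the accession as filed and its product quenches rhodamine fluorescence; potency means the concentration at half of the fitted maximal effect; 0% = enzyme reaction without inhibitor and -100% = no enzyme wells; top concentration of the series not given in the record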
#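 Fluorescence-quenching assay with 15 nM Sfp, 5 uM rhodamine-CoA and 12.5 uM BHQ-2-labelled ybbR peptide in pH 7.6 Hepes/MgCl2 buffer. Enzyme was pre-incubated with compound for 15 min at room temperature. Rate was taken from the 30-min fluorescence change (525/598 nm).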
# TRPML1 ag: activates the human TRPML1 channel; 0.12% of 410,000 active; TRPML1-expressing cells, Ca2+ dye fluorescence, FDSS; host cell line not named in the record; reference of the full effect not given here; Q9GZU1; AID 624414; activation, % (concentration not given with the values); in the data active = activation above about 50%; inconclusive = about 30% to 50%; inactive = below about 30%; further: 0% is about no effect; the text of the record puts the active cut at 80%
#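 In this qHTS format, compounds were pin-transferred onto Ca8-dye-loaded TRPML1-DL cells induced with Tet overnight, and intracellular Ca2+ fluorescence was recorded kinetically for 110 s after a 10 s baseline. A subsequent 4uM final 54-4 (EC80) addition followed by a second 110 s read served as the antagonist phase.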
# * = called active by the depositor; u = inconclusive; x = not tested or not shown; [ ] = remark or other dose.
SMILES,ClpP mod,Menin-MLL FL inh,TRPV1 PAM,TRPML1 inh,PINK1 modulator,Sfp PPTase inh,TRPML1 ag
C=Cn1nc(C)c2ccccc2c1=O,-0.7%,-0.2,-32,2,0.8%,u,0.2
COCCCNC(=S)N/N=C/c1ccc(O)cc1O,x,0.9,-31,-12,-0.4%,20%,-0.4
CN(C)c1ccc(CN(Cc2ccco2)C(=O)COc2ccc(F)cc2)cc1,-3.9%,x,x,13,-0.1%,x,0.5
O=c1c2cc(F)ccc2sn1-c1ccccc1Cl,-2.4%,x,x,-16,0.4%,x,1.0
CC1Sc2ccc(C(=O)NCc3ccccn3)cc2NC1=O (configuration not stated),-0.6%,x,-12,-7,-0.9%,x,-0.2
CCCC(C)C(=O)Nc1ccc(Cl)cn1 (configuration not stated),-0.6%,2.9,0,1,1.5%,4%,-1.1
COc1ccc(NCc2cc3cc4c(cc3n(CC(=O)Nc3ccc(F)cc3F)c2=O)OCO4)cc1,4.6%,x,x,-28,-1.1%,x,15
CC(=O)c1cccc(NC(=O)C(C)Sc2nnc3ccccn23)c1 (configuration not stated),0.1%,x,x,11,1.9%,x,-0.6
Cc1cc(C)nc(-n2nc(C)cc2NC(=O)c2ccc3c(c2)OCO3)n1,x,2.3,15,x,x,4%,x
CCNC(=O)C1(C)CCCN(C(=O)c2cc(-c3cccs3)oc2C)C1 (configuration not stated),-5.8%,x,x,x,4.3%,x,-1.0
COc1ccccc1C(c1nnnn1Cc1ccccc1)N1CCN(c2nc3ccccc3s2)CC1 (configuration not stated),-2.0%,2.8,4,-13,5.2%,5%,-0.3
C=CCn1c(SCC(=O)c2c(N)n(C3CC3)c(=O)[nH]c2=O)nnc1-c1ccoc1C,0.8%,x,-3,15,-0.3%,x,0.3
O=C(Nc1nc2ccc(Cl)cc2s1)c1cc(=O)c2ccccc2o1,-0.6%,x,x,30,-0.7%,x,-0.2
CN(c1ccccc1)S(=O)(=O)c1cccc(NC(=O)C2=NN(c3ccccc3)C(=O)CC2)c1,-15%,x,x,13,-0.3%,x,-1.6
CC1CCC(CN2C(Nc3ccccc3)=NC[C@@H]2Cc2ccccc2)CC1 (some centres not stated),-1.0%,x,x,46,5.9%,x,1.1
O=c1c2cnn(-c3ccccc3)c2ncn1Cc1ccccc1,-15%,1.1,8,-5,1.8%,14%,1.4
Cc1ccc(Cn2ccc(NC(=O)c3cc(-c4cccc(Cl)c4)on3)n2)cc1,154%,1.2,2,-19,9.4%,-19%,0.7
CCCCCCOc1ccc(N2C(=O)CC(N3CCC(C(=O)OCC)CC3)C2=O)cc1 (configuration not stated),-0.4%,1.8,-8,5,x,7%,0.6
CCOC(=O)CNC(=O)CSc1nnc(Cn2c(=O)sc3ccccc32)n1C,-1.6%,-0.7,14,19,2.6%,8%,-0.2
O=C(NCc1ccc(Cl)cc1)c1cccc(NC2=NC3CS(=O)(=O)CC3S2)c1 (configuration not stated),4.0%,-2.1,-2,6,0.3%,19%,-0.2
CCN(CC)S(=O)(=O)c1ccc(OC)c(NC(=O)c2ccc(N3CCCC3=O)cc2)c1,0.6%,x,-2,3,0.9%,x,-0.5
CCc1ccc(S(=O)(=O)N/N=C\c2ccc3c(c2)OCO3)cc1,-0.8%,x,u,-2,2.2%,3%,1.6
N#Cc1nc(COc2ccc(F)cc2)oc1N1CCN(Cc2ccccc2)CC1,-1.5%,2.0,-10,39,2.7%,7%,3.3
Cn1c2ccccc2c2cnn(CC(=O)NCCCN3CCCCC3)c(=O)c21,4.8%,x,x,-11,0.6%,x,1.7
Cc1nc(-c2ccc(F)cc2)sc1CCNC(=O)c1ccccc1,-28%,x,x,-6,3.5%,x,-1.4
SMILES,ClpP mod,Menin-MLL FL inh,TRPV1 PAM,TRPML1 inh,PINK1 modulator,Sfp PPTase inh,TRPML1 ag
O=C(NCCCn1ccnc1)c1[nH]c(C(F)(F)F)nc1-c1ccccc1,0.4%,x,x,-5,-0.4%,x,-0.4
O=C(NCCC(=O)N1CCC2(CC1)NCCc1[nH]cnc12)c1ccc(Br)cc1,-0.9%,x,13,-10,-0.4%,7%,-0.6
CS(=O)(=O)Nc1ccccc1C(=O)Nc1ccccc1Cl,-29%,4.9,29,24,0.4%,24%,0.9
FC(F)Oc1ccc(N=C2SCC3CCCCN23)cc1 (configuration not stated),x,3.2,-2,25,2.3%,-4%,1.2
Cc1cc([N+](=O)[O-])ccc1NC(=O)CCC(=O)N1CCCC1,0.0%,-0.4,-14,-12,-0.9%,10%,-0.6
COc1ccc(OC)c(NC(=O)CSc2nnc(CNc3ccc(F)cc3)o2)c1,-2.9%,-0.2,-19,13,-0.9%,11%,-0.4
CS(=O)(=O)Nc1cccc(S(=O)(=O)N2CCN(C(=O)c3ccccc3)CC2)c1,x,-0.1,10,5,1.5%,8%,0.1
CC(=O)Nc1ccc(S(=O)(=O)NCc2nnnn2-c2ccc(Cl)cc2)cc1,-0.8%,x,9,-5,u,x,-0.2
CCOC(=O)[C@]12CCCC=C1N(Cc1ccc(Cl)cc1Cl)C(=O)[C@H](CC(=O)N1CCC(c3ccccc3)CC1)C2,-18%,x,x,x,1.3%,x,-0.3
Cc1cccc(OCC(=O)NCc2ccccc2)c1,0.7%,-4.3,11,-7,0.2%,8%,-1.1
O=C(NCCN1CCOCC1)c1cccc(NS(=O)(=O)c2ccc(Br)cc2)c1,-2.5%,x,4,15,3.7%,x,0.3
Cn1nccc1NC(=O)Nc1cccc(Br)c1,1.3%,-1.0,-18,x,1.0%,-1%,x
Cc1cc(C)c2ccc(Cl)cc2n1,2.4%,2.8,1,x,0.7%,15%,x
O=C(O)CCN1C(=O)C(=C2CCCCCC2)SC1=S,-1.3%,2.6,-3,6,-0.8%,50µM*,0.4
Cc1ccc(-c2nnc(N3CCOCC3)c3ccccc23)cc1S(=O)(=O)NCC1CCCO1 (configuration not stated),-2.1%,1.8,-9,7,-0.1%,10%,-1.5
COc1ccc(-c2nc3ccccc3c(=O)n2CCCN2CCOCC2)cc1,0.2%,0.1,2,-4,-2.3%[38.3 µM],-8%,0.2
COc1cc(NC(=O)c2ccco2)c(OC)cc1NC(=O)CCC(=O)Nc1cc(C)ccc1C,u,0.4,6,-5,55%[38.3 µM],17%,0.7
COCOc1cccc(CN2CCC(C)(Oc3cccc(C#N)c3)C2)c1 (configuration not stated),-4.0%,x,x,x,0.7%,x,-0.6
CCCCC(Sc1nc(N)c(NC(=O)c2ccc(OCC)cc2)c(=O)[nH]1)C(=O)O (configuration not stated),x,-2.1,-1,17,5.7%,-10%,-0.1
O=C(O)C1C2C=CC(C2)C1C(=O)NCCc1ccncc1 (configuration not stated),-0.9%,-5.9,6,36,0.7%,-4%,-0.1
O=C(CN1C(=O)C2C3C=CC(C3)C2C1=O)N1CC(=O)N(CCc2ccccc2)C(=O)C1 (configuration not stated),-14%,0.6,-3,8,-0.2%,15%,-0.4
COc1ccc(-n2c(SCC(=O)Nc3ccc4c(c3)OCO4)nc3ccccc3c2=O)cc1,-1.1%,3.8,2,-11,1.5%[38.3 µM],5%,1.4
CC(=O)c1cccc(NC(=O)CCc2nnc3ccc(NCc4ccco4)nn23)c1,1.6%,0.2,4,6,17%,5%,3.4
COc1cc2nc(NC(=O)c3ccccc3)sc(=O)c2cc1OC,-2.1%,u,7,x,4.1%,12%,x
FC(F)(F)c1ccc(-c2nnc(-c3cccnc3)o2)cc1,-1.1%,0.7,-31,-4,0.0%,5%,-0.2
SMILES,ClpP mod,Menin-MLL FL inh,TRPV1 PAM,TRPML1 inh,PINK1 modulator,Sfp PPTase inh,TRPML1 ag
Cc1nc(C)c(-c2ccc(SCC(=O)Nc3ccc(Br)cc3)nn2)s1,-1.4%,x,x,32,-0.1%,x,3.8
O=C(NCc1cccnc1)c1cccn1-c1ncc(C(F)(F)F)cc1Cl,x,1.6,-15,10,-0.3%,12%,-0.7
COc1ccc(C(=O)N2CCC[C@@]3(CCN(Cc4cc(C(F)(F)F)cc(C(F)(F)F)c4)C3)C2)cc1,x,4.5,x,x,-0.7%,40%[activator],x
CCc1nnc(NC(=O)CSc2nnc(Cc3ccccc3)n2Cc2ccccc2)s1,1.2%,3.6,1,38,-1.9%,-3%,0.7
CC1(C(=O)NCc2ccccc2)Cc2c(-c3cccc(C(N)=O)c3)ccnc2O1 (configuration not stated),-4.5%,x,x,x,8.0%,x,-0.6
CC(C)(C)c1ccc(OCC(=O)NCC2(N3CCOCC3)CCCCC2)cc1,0.8%,x,x,3,1.4%,x,2.6
Cn1ncc2c(N3CCN(c4cccc(Cl)c4)CC3)ncnc21,-0.8%,x,x,31,1.9%,x,0.2
Cc1nc(CSc2nsc(C)c2C#N)cs1,x,6.5,3,2,2.3%,-11%,-0.4
COc1ccc(C2=NOC(C(=O)NC3CCCCC3)C2)cc1OC (configuration not stated),-2.1%,4.8,-25,-1,5.5%[38.3 µM],-2%,-0.1
O=C(NC(Cc1ccccc1)C(=O)O)C1CCN(S(=O)(=O)c2ccccc2C(F)(F)F)CC1 (configuration not stated),-0.2%,-4.5,9,-15,0.4%,17%,0.6
O=C(CSc1nc2[nH]c(=O)cc(O)c2s1)Nc1nncs1,x,x,x,5,-0.8%,x,-0.4
Cc1ccc(S(=O)(=O)N2CCCCC2)c(C)c1NS(C)(=O)=O,x,0.1,-12,-10,-1.7%,1%,0.0
O=C(NCc1ccc(F)cc1)c1cccs1,-1.0%,-1.2,-14,21,5.2%,7%,1.0
Cc1nnsc1C(=O)N1CCN(c2ccc(F)cc2)CC1,-0.8%,-1.8,-1,21,0.7%,27%,2.7
CC(C)N1C(=O)N(c2ccc(Cl)cc2)C(C)(O)CC1(C)C (configuration not stated),-0.8%,-5.2,-6,x,5.9%,9%,x
O=C(Nc1nc(-c2ccccc2)cs1)c1ccc(Br)o1,-0.6%,5.3,-10,-1,5.3%,25µM*,0.1
CC(=O)N1CN(C2CC(C)(C)NC(C)(C)C2)Cc2c1sc1c2CCCC1,-1.7%,3.4,8,0,3.5%,8%,0.5
NS(=O)(=O)c1ccc(CNC(=S)NC(=O)c2ccco2)cc1,x,x,x,1,-0.7%,x,-0.4
CCCn1c(C)c(C(=O)OCC)c(O)c(-c2ccccc2)c1=O,x,x,x,-7,7.0%,x,-0.3
C=CCn1c(N)cc(=O)nc1SCC(=O)Nc1ccc(C(=O)OCC)cc1,x,0.4,5,-3,-0.7%,6%,0.9
